T cruzi inh: blocks replication of Trypanosoma cruzi. T. cruzi beta-gal in NIH3T3, luminescence, 90 h. inhibition, % (no concentration beside the values). 300,000 compounds, 1.4% hits. AID 1885;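 active = mean inhibition across valid replicates above about 55%, limit read from the data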;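 also: signal also drops with host cell toxicity which is not excluded here; 0% = plate median of DMSO wells and 100% = zero luminescence signal; higher percent means less beta-gal luminescence so fewer parasites; stock transfer was 50 nL into about 50 µL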
MLL AF4-AF9 inh: MLL-AF4/AF9 protein interaction inhibition | AlphaScreen, biotin-AF4 peptide binding to FLAG-AF9 | inhibition, % at 10 µM | 350,000 compounds, 0.47% hits | AID 651704;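 active = every replicate reaching a set inhibition limit, whatever the replicate mean, cut at about 25% in these data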;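 also: 0% = plate neutral control median and 100% = total signal loss; the record names both 10 and 1 µM as test concentration; the first replicate is given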
Target sequence (P42568 whole entry, looked up): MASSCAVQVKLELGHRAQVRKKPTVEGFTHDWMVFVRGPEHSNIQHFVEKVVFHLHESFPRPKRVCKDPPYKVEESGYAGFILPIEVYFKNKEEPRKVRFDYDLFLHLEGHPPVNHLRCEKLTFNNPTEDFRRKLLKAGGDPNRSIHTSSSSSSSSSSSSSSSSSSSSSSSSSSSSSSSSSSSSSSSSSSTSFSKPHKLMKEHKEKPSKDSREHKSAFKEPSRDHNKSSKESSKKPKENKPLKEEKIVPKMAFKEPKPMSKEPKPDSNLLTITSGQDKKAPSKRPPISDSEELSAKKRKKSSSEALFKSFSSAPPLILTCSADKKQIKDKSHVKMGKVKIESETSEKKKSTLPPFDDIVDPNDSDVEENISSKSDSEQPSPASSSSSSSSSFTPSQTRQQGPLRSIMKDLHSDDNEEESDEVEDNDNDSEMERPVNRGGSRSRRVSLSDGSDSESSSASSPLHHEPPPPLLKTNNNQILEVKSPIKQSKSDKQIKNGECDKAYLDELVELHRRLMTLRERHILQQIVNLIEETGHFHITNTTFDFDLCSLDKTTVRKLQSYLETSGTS
A1 inh: inhibitors of the anti-apoptotic protein A1, read as caspase activation; MEF A1-2A-BIM cells, Caspase-Glo 3/7 luminescence, 3 h; percent of clofoctol response, vehicle zero; caspase activation, % (test concentration not listed); 330,000 compounds, 0.066% hits;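 active = over half of replicate activation scores above 10%, or exactly half above 10 with the replicate mean above 10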;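 also: wells of about 30 µL received 50 nL stock; many hits fall short of the cut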
E coli growth: blocks Escherichia coli growth; OD600, 23 h; active compounds read low; OD600 absorbance (concentration not given with the values); 330,000 compounds, 0.21% hits; AID 1053175;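 active = OD600 absorbance below the run mean of sample wells minus 3.6 SD, in any replicate, cut at about 0.56 in these data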;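 also: stock transfer was 300 nL into about 60 µL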
Beta cell apopt: blocks beta cell apoptosis; INS-1E cytokine-induced death, ATP luminescence, 48 h; percent of positive-control rescue, neutral wells zero; protection from apoptosis, % (test concentration not listed); 300,000 compounds, 0.8% hits; AID 435005;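 active = all replicates at 75% or more, or half of them and the mean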;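 also: 0% = cytokine-treated negative control wells and 100% = positive control rescue; higher means more ATP so stronger rescue from cytokine killing; wells of about 40 µL received 100 nL stock; the first replicate is given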
UCH37 DUB inh: human UCH37 deubiquitinating enzyme inhibition; Q9Y5K5; purified proteasome/UCH37, Ub-AMC cleavage fluorescence; inhibition, % (no concentration beside the values); 330,000 compounds, 0.33% hits; AID 588478;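 active = mean of two replicates above 20%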;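 also: 0% = compound-free wells with enzyme and 100% = wells lacking proteasome; stock transfer was 100 nL into about 20 µL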
Target sequence (Q9Y5K5 whole entry, looked up): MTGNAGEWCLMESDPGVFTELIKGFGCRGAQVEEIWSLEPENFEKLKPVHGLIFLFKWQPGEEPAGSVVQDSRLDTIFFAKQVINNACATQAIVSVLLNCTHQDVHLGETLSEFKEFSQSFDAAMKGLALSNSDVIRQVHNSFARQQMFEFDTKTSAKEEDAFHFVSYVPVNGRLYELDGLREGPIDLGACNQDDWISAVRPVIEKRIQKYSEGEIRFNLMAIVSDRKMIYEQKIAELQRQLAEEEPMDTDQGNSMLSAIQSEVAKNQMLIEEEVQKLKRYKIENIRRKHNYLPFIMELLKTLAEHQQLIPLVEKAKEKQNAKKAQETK
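Material: human UCH37 enzyme supplied as purified proteasome complex. Measure: % inhibition of Ub-AMC cleavage fluorescence. Medium: pH 7.4 Tris-HCl (50 mM) with ovalbumin, ATP-MgCl2, DTT. Times: 30 min preincubation with enzyme, 25 min cleavage at room temperature. Detection: AMC fluorescence intensity at 355/460 nm.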
rRNA inh HTS: inhibits bacterial ribosomal RNA function over humanized ribosomes; GFP signal change (wild-type ribosome), % (no concentration beside the values); E. coli WT GFP vs humanized-ribosome RFP mutants, fluorescence, 24 h; active compounds read low; DMSO median 0, no signal -100; AID 720706; 350,000 compounds, 1.6% hits;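 active = significant combined selectivity score with lowered wild-type GFP, culture density cut under 30%, mutant RFP and density less affected; inactive = any of these conditions unmet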; also: one replicate is shown; some compounds called inactive have numbers as strong as hits
FGF22 binding: shifts melting point of recombinant human FGF22. Q9HCT0. recombinant FGF22 thermal shift, SYPRO orange fluorescence; percent of sucrose octasulfate shift, DMSO zero. calls only at 9.99 µM. 340,000 compounds, 1.5% hits. AID 651658;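 active = melting point raised past a set limit in the mean and every replicate; three in four hits are not shown here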
Target sequence (Q9HCT0 whole entry, looked up): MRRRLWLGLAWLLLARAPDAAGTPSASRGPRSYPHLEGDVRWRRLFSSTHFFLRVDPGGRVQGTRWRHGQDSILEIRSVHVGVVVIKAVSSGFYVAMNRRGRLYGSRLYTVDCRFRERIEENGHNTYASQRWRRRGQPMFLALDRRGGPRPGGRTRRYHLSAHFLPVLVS
rRNA inh HTS OD600: further read-out of rRNA inh HTS, marked with its call; OD600 change, %; measured here: OD600 growth;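 optical density of the mix in the first replicate; 0 = DMSO median and -100 = no signal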
rRNA inh HTS RFP: also measured in rRNA inh HTS; calls as there; RFP signal change, %; measured here: RFP humanized mutant strains;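 first replicate; 0 = DMSO median and -100 = no signal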
* marks the source's active call; other numbers are inactive results; & = joins results of further samples. Not all compounds are listed. The share of hits here may be higher or lower than overall.

For Nc1[nH]c(=O)[nH]c(=O)c1N=Nc1cccc(Cl)c1 the results were T cruzi inh -21.1, MLL AF4-AF9 inh -1.1, A1 inh -5.9, E coli growth 0.662, Beta cell apopt 1.7, UCH37 DUB inh 8.9, rRNA inh HTS 0.4, FGF22 binding inactive, rRNA inh HTS OD600 -2.0 and rRNA inh HTS RFP -0.4.
Screening CCN1C(=O)[C@@H]2[C@@H](c3ccc(-c4ccccc4)cc3)N3CCC[C@@]3(C(=O)OC)[C@@H]2C1=O returned MLL AF4-AF9 inh 4.0, A1 inh 1.1, Beta cell apopt -4.5, UCH37 DUB inh 4.3, rRNA inh HTS -19.4, FGF22 binding inactive, rRNA inh HTS OD600 -48.3 and rRNA inh HTS RFP 6.0.
For O=C(CN1CCN(c2ccc(F)cc2)CC1)c1cccs1 the results were T cruzi inh -5.0, MLL AF4-AF9 inh -0.4, A1 inh 0.5, E coli growth 0.658, Beta cell apopt -1.6, UCH37 DUB inh 0.7, rRNA inh HTS 7.7, FGF22 binding inactive, rRNA inh HTS OD600 5.6 and rRNA inh HTS RFP 1.1.
COc1ccc(OC)c(NC(=O)c2cc3n(n2)C(C(F)(F)F)CC(c2ccc4c(c2)OCO4)N3)c1 (centres undefined) was read as T cruzi inh 48.6, A1 inh -0.4, E coli growth 0.725, Beta cell apopt -9.2 and UCH37 DUB inh -1.7.
O=C(O)c1ccc(NC(=S)NC(=O)C(c2ccccc2)c2ccccc2)cc1 was read as T cruzi inh -5.3, MLL AF4-AF9 inh -2.5, A1 inh 0.6, E coli growth 0.73, UCH37 DUB inh 4.0, rRNA inh HTS -22.2, FGF22 binding inactive, rRNA inh HTS OD600 -55.5 and rRNA inh HTS RFP -8.5.
For O=C(Cc1ccc(Cl)cc1)N/N=C/c1cccc(O)c1 the results were T cruzi inh 1.9, MLL AF4-AF9 inh -1.9, A1 inh 0.0, Beta cell apopt -6.9, rRNA inh HTS -2.1, FGF22 binding inactive, rRNA inh HTS OD600 4.7 and rRNA inh HTS RFP 1.7.
Screening CN(C)S(=O)(=O)c1cccc(NC(=O)CO/N=C(\N)c2ccccc2)c1 returned T cruzi inh -0.3, MLL AF4-AF9 inh 0.9, A1 inh -0.9, E coli growth 0.663, UCH37 DUB inh 6.0, rRNA inh HTS 4.6, FGF22 binding inactive, rRNA inh HTS OD600 1.3 and rRNA inh HTS RFP 0.0.
CCN(CC)S(=O)(=O)c1ccc2oc(SCC(=O)Nc3cc(C)on3)nc2c1 was read as T cruzi inh 60.4*, MLL AF4-AF9 inh -2.4, A1 inh -0.6, Beta cell apopt 64.3, rRNA inh HTS 5.2, FGF22 binding inactive, rRNA inh HTS OD600 -0.7 and rRNA inh HTS RFP -0.8.
`Cc1c(O[C@@H]2O[C@H](CO)[C@@H](O)[C@H](O)[C@H]2O)ccc2c1oc(=O)c1ccccc12` gave T cruzi inh -25.3, MLL AF4-AF9 inh -21.7, A1 inh -1.0, E coli growth 0.644, Beta cell apopt 1.2, UCH37 DUB inh inactive, rRNA inh HTS 2.7, FGF22 binding inactive, rRNA inh HTS OD600 3.7 and rRNA inh HTS RFP -4.1.
`CN(Cc1ccccc1)Cc1nc2c(c(=O)n(C)c(=O)n2C)n1Cc1ccc(Cl)cc1` gave T cruzi inh 15.2, A1 inh -0.3, E coli growth 0.674, Beta cell apopt 23.0 and UCH37 DUB inh 2.1.
For O=C(O)c1ccc(CS(=O)(=O)Cc2ccccc2F)o1 the results were T cruzi inh 2.5, MLL AF4-AF9 inh -1.5, A1 inh -0.4, Beta cell apopt -11.6, rRNA inh HTS 9.3, FGF22 binding inactive, rRNA inh HTS OD600 -1.3 and rRNA inh HTS RFP -3.2.
Screening CCOC(=O)c1c(C)nc2sc3c(=O)n(-c4ccc(C(C)=O)cc4)nnc3c2c1-c1ccc(OC)cc1 returned T cruzi inh 31.0, A1 inh -0.2, E coli growth 0.739, Beta cell apopt -6.6 and UCH37 DUB inh -0.9.
Cc1c(C(=O)N(C)C)sc(NC(=O)c2cccc([N+](=O)[O-])c2)c1C#N was read as T cruzi inh -4.5, A1 inh -0.1, E coli growth 0.709, Beta cell apopt 8.0 and UCH37 DUB inh 10.9.
CCOc1ccc(NC2OC(CO)C(O)C(O)C2O)c([N+](=O)[O-])c1 (centres undefined) was read as T cruzi inh -1.6, MLL AF4-AF9 inh 1.7, A1 inh -0.1, E coli growth 0.696, Beta cell apopt -4.5, UCH37 DUB inh 6.5, rRNA inh HTS 20.9, FGF22 binding inactive, rRNA inh HTS OD600 11.4 and rRNA inh HTS RFP 2.1.
`CSCCC(NC(=O)c1cc(C(C)(C)C)oc1C)C(=O)O` (centres undefined) gave T cruzi inh 11.9, MLL AF4-AF9 inh 2.6, A1 inh 0.2, E coli growth 0.737, Beta cell apopt -0.8, UCH37 DUB inh 2.3, rRNA inh HTS 11.2, FGF22 binding inactive, rRNA inh HTS OD600 4.5 and rRNA inh HTS RFP 4.9.
For CN(C)CCCNC(=O)CC1C[C@H](C(=O)N2CCOCC2)[C@@]2(CCC3CCCC3)c3[nH]c4ccccc4c3CCN2C1=O (some centres undefined) the results were MLL AF4-AF9 inh 1.9, A1 inh -0.3, E coli growth 0.692, Beta cell apopt -3.7, UCH37 DUB inh 2.4, rRNA inh HTS -3.8, FGF22 binding inactive, rRNA inh HTS OD600 4.7 and rRNA inh HTS RFP -4.0.
For COc1ccc(-n2ccnc2SCC(=O)Nc2cc(C)on2)cc1 the results were T cruzi inh -2.9, MLL AF4-AF9 inh 1.3, A1 inh 1.8, E coli growth 0.703, UCH37 DUB inh 3.0, rRNA inh HTS 10.7, FGF22 binding inactive, rRNA inh HTS OD600 9.3 and rRNA inh HTS RFP -0.5.
Screening O=C(NC1CCCCCC1)C1CCN(S(=O)(=O)c2cnc[nH]2)CC1 returned T cruzi inh -4.9, MLL AF4-AF9 inh -2.9, A1 inh -0.7, E coli growth 0.664, Beta cell apopt -7.3, UCH37 DUB inh -1.6, rRNA inh HTS 18.2, FGF22 binding inactive, rRNA inh HTS OD600 14.9 and rRNA inh HTS RFP -3.1.
For COc1ccc(C(=O)N2CCOC2CNC(=O)C(=O)NCc2ccc(F)cc2)cc1 (centres undefined) the results were T cruzi inh -1.2, MLL AF4-AF9 inh -2.5, A1 inh 0.3, Beta cell apopt 4.2, rRNA inh HTS 6.3, FGF22 binding inactive, rRNA inh HTS OD600 4.3 and rRNA inh HTS RFP -0.1.
Screening CC(OC(=O)c1ccco1)C(=O)NC1CCCCC1 (centres undefined) returned T cruzi inh -10.5, A1 inh -2.0, E coli growth 0.685, Beta cell apopt -6.8 and UCH37 DUB inh -0.2.
CC(=O)N(C)c1ccc(NC(=O)c2cnn(C)c2)cc1 was read as T cruzi inh 5.2, A1 inh -0.4, E coli growth 0.734, Beta cell apopt 1.0 and UCH37 DUB inh 0.3.
Screening CC(NC(=O)c1cc(-c2ccccn2)nc2ccc(Cl)cc12)C1CCCO1 (centres undefined) returned T cruzi inh -2.5, MLL AF4-AF9 inh -2.6, A1 inh 0.7, E coli growth 0.638, UCH37 DUB inh -0.4, rRNA inh HTS 3.5, FGF22 binding inactive, rRNA inh HTS OD600 14.6 and rRNA inh HTS RFP -1.6.
Screening CC(C)NC(=O)N(C)C[C@H]1Oc2ccc(NC(=O)CCN3CCOCC3)cc2C(=O)N([C@H](C)CO)C[C@@H]1C returned MLL AF4-AF9 inh -0.5&-3.5, E coli growth 0.717, UCH37 DUB inh -1.8, rRNA inh HTS 3.5&10.9, FGF22 binding inactive, rRNA inh HTS OD600 12.2&0.8 and rRNA inh HTS RFP -2.9&0.9.
Cc1oc(-c2ccc(Cl)cc2)nc1CS(=O)CC(=O)NCCCN1CC(C)CC(C)C1 (centres undefined) was read as T cruzi inh 14.0, MLL AF4-AF9 inh 2.6, A1 inh 0.4, E coli growth 0.701, Beta cell apopt -8.0, UCH37 DUB inh 4.9, rRNA inh HTS 3.6, FGF22 binding inactive, rRNA inh HTS OD600 -3.5 and rRNA inh HTS RFP 0.3.
Cc1nonc1NC(=O)CSc1ccccn1 was read as T cruzi inh -2.7, MLL AF4-AF9 inh 0.8, A1 inh -1.3, E coli growth 0.682, Beta cell apopt 2.3, UCH37 DUB inh 1.1, rRNA inh HTS 7.9, FGF22 binding inactive, rRNA inh HTS OD600 12.4 and rRNA inh HTS RFP 3.2.
For Cc1cc(=O)oc2ccc(OC(C)C(=O)O)cc12 (centres undefined) the results were T cruzi inh -11.8, MLL AF4-AF9 inh 0.2, A1 inh -1.3, E coli growth 0.696, UCH37 DUB inh -72.8 and FGF22 binding inactive.
O=C(O)/C=C/C(=O)Nc1ccccc1C(=O)Nc1ccccc1 was read as T cruzi inh -10.1, A1 inh -1.4, E coli growth 0.688, Beta cell apopt 0.7 and UCH37 DUB inh -1.8.
Cc1ccc2c(N)c(C#N)sc2n1 was read as T cruzi inh 0.6, A1 inh -1.5, E coli growth 0.669, Beta cell apopt -4.0 and UCH37 DUB inh -10.4.
Screening O=C(Nc1ccc(N2CCOCC2)cc1)C1CCCN(S(=O)(=O)c2ccccc2)C1 (centres undefined) returned T cruzi inh 3.1, A1 inh 0.4, E coli growth 0.716, Beta cell apopt -2.2 and UCH37 DUB inh 0.7.
Screening Cc1cc(C(=O)CN2C(=O)NC(CC(C)C)C2=O)c(C)n1-c1ccccc1F (centres undefined) returned T cruzi inh 3.2, MLL AF4-AF9 inh -1.4, A1 inh 2.0, E coli growth 0.673, Beta cell apopt -4.0, UCH37 DUB inh 0.8, rRNA inh HTS 9.5, FGF22 binding inactive, rRNA inh HTS OD600 13.1 and rRNA inh HTS RFP 1.8.
For CCc1ccc2nc(Nc3ncc(C(C)=O)c(C)n3)nc(C)c2c1 the results were T cruzi inh -12.7, MLL AF4-AF9 inh 3.2, A1 inh 0.6, E coli growth 0.681, Beta cell apopt -16.4, UCH37 DUB inh 7.3, rRNA inh HTS 2.9, FGF22 binding inactive, rRNA inh HTS OD600 4.0 and rRNA inh HTS RFP 3.0.
Screening c1ccc2c(c1)ncn2-c1ccc(-c2ccnc(-c3ccncc3)n2)cc1 returned T cruzi inh -17.6, A1 inh -0.2, E coli growth 0.671, Beta cell apopt -1.5 and UCH37 DUB inh -2.8.
`CCOc1ccc2nc(NC(=O)C(NS(=O)(=O)c3cccs3)C(C)C)sc2c1` (centres undefined) gave T cruzi inh 24.1, MLL AF4-AF9 inh -42.4, A1 inh 0.3, E coli growth 0.725, Beta cell apopt -6.0, UCH37 DUB inh -0.6, rRNA inh HTS 2.9, FGF22 binding inactive, rRNA inh HTS OD600 -5.4 and rRNA inh HTS RFP 0.2.
Screening O=CC1=C(c2ccccc2)Oc2ccccc2O1 returned T cruzi inh -22.1, MLL AF4-AF9 inh 0.4, A1 inh 2.7, E coli growth 0.701, Beta cell apopt 52.5, UCH37 DUB inh 3.3, rRNA inh HTS 6.2, FGF22 binding inactive, rRNA inh HTS OD600 23.1 and rRNA inh HTS RFP 4.7.

Source: PubChem BioAssay (several laboratories)
